Bioassay records (PubChem)
Mtb bLac sens: beta-lactam sensitization of Mtb H37Rv, H37Rv. M. tuberculosis H37Rv growth with meropenem, percent inhibition; hits of this screen are not shown here. inhibition, % at 25 µM. AID 434955, 2010. hit rate 0.27% among 330,000;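 active = about 74% or more and at least 40 points above the plate without the antibiotic, then above 30% in a dose series; inconclusive = first-round hits that could not be retested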;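 also: growth measured after seven days incubation then overnight dye step; 0% = bacteria only wells and 100% = bacteria with antibiotic; twin plates without the antibiotic show which effects depend on it; some results filed as inactive read as strong as hits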
Mtb H37Rv: M. tuberculosis H37Rv growth inhibitors, H37Rv strain (AID 1626); M. tuberculosis H37Rv growth inhibition; higher % means a stronger effect; one-dose inhibition, % at 10 µM; IC50 in µM for titrated hits; hit rate 0.95% among 220,000;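 active = confirmed in a dose series; inconclusive = inhibition above 80% but not taken into the dose series; inactive = below 80% or under 30% at every dose of the series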;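 also: bacteria incubated seven days before Alamar blue readout; 0% = bacteria only wells and 100% = bacteria with antibiotic wells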
RecA intein inh: Mtb RecA intein splicing inhibitors, primary screen, biochemical, fluorescence, HTS; cell-free RecA intein splicing; hit rate 0.75% among 290,000; inhibition, %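 (about 9 µM by stock and volumes)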; Protein RecA (Mycobacterium tuberculosis (strain ATCC 25618 / H37Rv)), P9WHJ3; in the data active = inhibition above about 30%; inconclusive = no clear call, values can overlap the other calls;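 also: 0% = vehicle wells and 100% = reference inhibitor control wells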
Target sequence (P9WHJ3 whole entry, looked up): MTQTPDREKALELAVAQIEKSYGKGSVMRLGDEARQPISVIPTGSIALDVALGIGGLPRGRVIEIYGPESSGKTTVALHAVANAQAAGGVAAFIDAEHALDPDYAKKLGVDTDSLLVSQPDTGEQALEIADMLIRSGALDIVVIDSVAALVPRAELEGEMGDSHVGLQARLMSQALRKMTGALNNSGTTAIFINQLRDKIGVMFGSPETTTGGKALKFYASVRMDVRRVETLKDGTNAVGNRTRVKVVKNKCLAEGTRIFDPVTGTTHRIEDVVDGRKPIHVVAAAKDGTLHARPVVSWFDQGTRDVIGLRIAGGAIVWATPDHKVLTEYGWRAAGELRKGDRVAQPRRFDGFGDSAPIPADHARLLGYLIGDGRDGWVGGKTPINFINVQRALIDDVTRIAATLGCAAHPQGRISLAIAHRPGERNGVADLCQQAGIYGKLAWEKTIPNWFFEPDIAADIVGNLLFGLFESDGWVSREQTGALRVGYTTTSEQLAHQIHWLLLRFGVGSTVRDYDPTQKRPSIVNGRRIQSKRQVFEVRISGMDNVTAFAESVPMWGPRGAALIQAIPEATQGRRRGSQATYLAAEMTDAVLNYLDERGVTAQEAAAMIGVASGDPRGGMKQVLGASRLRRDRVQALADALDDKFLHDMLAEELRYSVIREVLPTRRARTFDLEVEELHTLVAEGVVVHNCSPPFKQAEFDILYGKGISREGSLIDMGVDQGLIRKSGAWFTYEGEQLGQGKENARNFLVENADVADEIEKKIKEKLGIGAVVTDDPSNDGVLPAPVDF
Arbovirus inh: antivirals against arbovirus infection, primary screen, cell-based, full library, 10K replicate subset; inhibition, % at 10 µM; hit rate 0.37% among 200,000; AID 1251, 2008; arbovirus infection cell-based antiviral screen;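 active = inhibition from about 30%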;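 also: bluetongue infection of BSR cells; cell survival read as ATP light after 72 h; 0% = infected wells without compound and 100% = uninfected wells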
YopH PTP inh: YopH tyrosine phosphatase inhibitors, primary screen, biochemical, fluorescence Ex485/Em525; YopH tyrosine phosphatase [Yersinia enterocolitica]; inhibition, %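 (about 10 µM by stock and volumes)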; hit rate 0.16% among 140,000; AID 898, 2007;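 active = inhibition of 50% or more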;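 also: controls were vehicle for no effect and minimum signal wells for full effect; inactives centre near -20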
Arbovirus inh repeat: second read-out of Arbovirus inh, no call of its own (marks repeat the call); inhibition, %; measured here: 10K subset replicate screen; many hits read low in the repeat;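 first of two repeat runs on a subset; 0% = infected and 100% = uninfected wells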
* = called active by the depositor; ? = inconclusive; . = not tested or not shown. This is a subset. The share of hits here may be higher or lower than overall.

SMILES | Mtb bLac sens | Mtb H37Rv | RecA intein inh | Arbovirus inh | YopH PTP inh | others
CC(C)c1ccccc1NC(=O)COC(=O)Cc1cccc(C(F)(F)F)c1 | 4.7 | -7.9% | 0.9 | -0.8 | -18.0
CCOC(=O)c1c(NC(=O)CSc2nnnn2C)sc(C)c1C | -6.0 | -10.6% | 0.2 | -3.0 | -22.1
O=c1[nH]cnc(O)c1C(c1ccc(Br)cc1)c1c(O)nc[nH]c1=O | 3.3 | -0.8% | 2.2 | . | .
COc1cc(S(=O)(=O)N2CCCC2)c(C)cc1C | -9.3 | 4.1% | -3.6 | 1.5 | .
Cc1cc(-c2nn(-c3ccccc3F)cc2CN2CCN(c3ccccn3)CC2)c(C)s1 | 96.4 | 20.0% | 8.0 | 17.4 | .
O=c1[nH]c2ccccc2c(O)c1-c1cc2ccccc2oc1=O | -2.1 | 1.3% | -1.8 | -3.3 | .
COc1ccccc1N1CCN(CC(=O)c2ccc3ccn(C(C)=O)c3c2)CC1 | -2.3 | -4.1% | -1.6 | 4.8 | -29.5 | Arbovirus inh repeat=-0.9
COc1ccc2nc(SCC(=O)NCc3ccc4c(c3)OCO4)[nH]c2c1 | 1.4 | -5.0% | 0.1 | -0.8 | -18.3
CCOc1ccccc1NC(=S)NCCc1ccc(F)cc1 | -6.3 | -6.2% | 4.7 | 6.5 | .
COc1ccc(NC(=O)C2C3C=CC(O3)C2C(=O)NCc2cccnc2)cc1 (configuration not stated) | 97.5 | 54.9% | 6.5 | -5.2 | -44.3
O=C(COC(=O)c1ccc(Sc2ccccc2)c([N+](=O)[O-])c1)NC1CCCc2ccccc21 (configuration not stated) | 19.4 | 4.8% | 0.9 | 9.9 | -17.3
O=C(Nc1ccc(-c2nc3ccccc3s2)c(O)c1)C1=COCCO1 | 13.4 | 1.9% | -4.0 | -6.6 | -19.4
COc1cccc(N(CC(=O)NC2CCCCC2)C(=O)CCC(=O)Nc2nc(C)cs2)c1 | 1.2 | . | -2.1 | . | .
OC1(c2cccc(C(F)(F)F)c2)CCN(Cc2nc(-c3cnccn3)no2)CC1 | 5.7 | -0.4% | 2.5 | 2.1 | .
CCNc1nc(N)c(C(=C(C#N)C#N)c2ccccc2)s1 | -1.4 | -2.0% | -7.8 | -7.8 | -37.4
Nc1ccc(S(=O)(=O)Nc2nccc(/C=C/c3cccc(Br)c3)n2)cc1 | 3.3 | . | 3.2 | . | .
CCc1cc2c(cc3c(=O)n(CC(=O)N4CCN(c5ccccn5)CC4)nc(CC)n32)s1 | -4.3 | -0.6% | 1.2 | -7.0 | 1.2
O=C(O)C1CCN1C1CCCCC1 (configuration not stated) | -18.6 | 0.4% | -1.6 | 4.4 | -66.5
CCc1ccc(NC(=O)c2cc3c(C)nc4ccccc4c3o2)cc1 | 80.1 | 29.3% | 9.4 | -10.5 | .
COC(=O)c1nn(-c2ccc3c(c2)CCN3C(C)=O)cc1O | -0.2 | -15.5% | -1.8 | -6.1 | -147.5
O=C(N/N=C/c1ccccc1[N+](=O)[O-])c1ccc(CN2CCOCC2)cc1 | 3.1 | 2.0% | -0.5 | 7.6 | -4.5
CCCCCNC(=O)[C@@H]1CSC2c3ccccc3C(=O)N21 (some centres not stated) | 7.5 | . | 0.8 | . | .
CCOC(=O)c1c(-c2ccc(C)cc2)csc1NC(=O)c1cccc(N2C(=O)CCC2=O)c1 | 4.9 | -1.1% | -2.4 | -10.4 | -29.8
COc1ccc(OC)c(C(=O)COC(=O)c2ccc(C)o2)c1 | -14.9 | -3.9% | 2.4 | 2.1 | -14.8
CCN(CCO)c1ncnc2c1sc1nc(CC(C)C)c3c(c12)CC(C)(C)OC3 | 12.9 | 1.5% | 1.2 | -6.8 | -29.4

Reprinted from the part before: 3 compounds; new compounds follow.
SMILES | Mtb bLac sens | Mtb H37Rv | RecA intein inh | Arbovirus inh | YopH PTP inh | others
CCOC(=O)c1c(-c2ccc(C)cc2)csc1NC(=O)c1cccc(N2C(=O)CCC2=O)c1 | 4.9 | -1.1% | -2.4 | -10.4 | -29.8
COc1ccc(OC)c(C(=O)COC(=O)c2ccc(C)o2)c1 | -14.9 | -3.9% | 2.4 | 2.1 | -14.8
CCN(CCO)c1ncnc2c1sc1nc(CC(C)C)c3c(c12)CC(C)(C)OC3 | 12.9 | 1.5% | 1.2 | -6.8 | -29.4
COc1cc2c(cc1OC)C(C)N(C(=O)c1ccc(C)o1)CC2 (configuration not stated) | -1.0 | . | -0.8 | . | .
CN1C(=O)[C@H]2[C@@H](/C=C/c3ccccc3)N3C(=O)CN(CCO)C(=O)[C@@]3(Cc3ccccc3)[C@H]2C1=O | -1.0 | . | 11.5 | . | .
CCCc1ccc(O)c(N=Cc2cc(Br)cc(OCC)c2O)c1 | -1.0 | 4.0% | -5.2 | -17.0 | .
O=C(Cc1ccc(O)cc1)NC1CCCCCC1 | 1.9 | . | 0.6 | . | .
COCCCNc1nc2nonc2nc1N1CCC(C(C)N2CCOCC2)CC1 (configuration not stated) | -3.1 | -7.2% | -1.7 | 4.0 | .
Cc1nc2ccc(Cl)cn2c1C(=O)NN | -2.1 | 0.6% | 2.9 | -13.4 | .
C=CCOC(=O)C1=C(C)NC(SCC(=O)Nc2ccccc2)=C(C#N)C1c1ccco1 (configuration not stated) | 3.8 | -1.7% | 5.0 | -5.6 | -35.7
CCNc1nc(NC(C)CC)nc(ON=C(C)C)n1 (configuration not stated) | 0.4 | 1.8% | 1.7 | 11.2 | .
COc1cc(NC(=O)C(=O)NCCN2CCNCC2)c(OC)cc1Cl | 1.2 | 8.8% | -1.3 | 2.0 | .
COc1ccc(N=C2SC(C(=O)O)CC(=O)N2Cc2ccc(OC)c(OC)c2)cc1 (configuration not stated) | 1.7 | 1.1% | 5.3 | 2.4 | -33.5
CC(C)(C)c1ccc(C(=O)Cn2nc(C(=O)O)c3ccccc3c2=O)cc1 | 2.8 | 6.0% | -0.3 | . | .
CCn1cc(CN2CCC(n3nccc3NC(=O)Cc3ccccc3)CC2)cn1 | ? | . | -0.3 | . | .
C=CCc1c(C)nc2c(-c3ccccc3)cnn2c1N1CCOCC1 | 8.5 | . | 1.0 | . | .
NC(=O)C(=O)N/N=C/c1cccc(C(F)(F)F)c1 | -3.9 | -4.6% | 1.1 | 2.2 | .
COc1ccc(S(=O)(=O)N2CCCCC2)cc1NC(=O)c1ccccc1 | 3.6 | . | 1.1 | . | .
O=C(CCC(=O)OCc1ccc(Br)cc1)Nc1ccccc1 | -11.3 | -2.9% | -2.0 | 0.9 | -33.8
COC(=O)c1c(NC(=O)C2SC(=NC3CCCCC3)C(C(N)=O)=C2N)sc2c1CCCC2 (configuration not stated) | -1.1 | 10.4% | 1.4 | -33.1 | -13.9
Cc1ccc(C2C3=C(CC(C)(C)CC3=O)Nc3n[nH]c(C)c32)cc1 (configuration not stated) | -9.9 | 1.9% | 2.6 | 7.0 | -6.5
CCOC(=O)C1(CCc2ccccc2)CCN(Cc2ccc(C(=O)OC)cc2)CC1 | 72.7 | . | 9.3 | . | .
S=C(Nc1ccc(Cl)cc1Cl)N1CCN(c2ccccn2)CC1 | 3.4 | . | -1.8 | . | .
Cc1nonc1NC(=O)CSc1nnc(-c2ccoc2C)n1C | -3.4 | 4.5% | 2.9 | -0.1 | 0.9
Cn1nnnc1NCc1ccc(Cl)cc1 | -3.4 | -2.9% | 0.1 | 5.3 | .
O=C(CN(Cc1ccc(F)cc1)C(=O)CNS(=O)(=O)c1ccc(Cl)cc1)NCC1CCCO1 (configuration not stated) | -3.9 | . | 1.0 | . | .
O=C(NCc1ccncc1)C(=O)NCC1OCCCN1S(=O)(=O)c1ccccc1 (configuration not stated) | 5.0 | -5.2% | 1.4 | 2.4 | -6.8
O=C(Nc1ccc2c(c1)OCO2)c1ccc(N2C(=O)c3ccccc3C2=O)cc1 | 0.4 | 4.5% | -0.4 | 4.6 | -31.8

Of the compounds above, these have a Cl atom:
SMILES | Mtb bLac sens | Mtb H37Rv | RecA intein inh | Arbovirus inh | YopH PTP inh | others
Cc1nc2ccc(Cl)cn2c1C(=O)NN | -2.1 | 0.6% | 2.9 | -13.4 | .
COc1cc(NC(=O)C(=O)NCCN2CCNCC2)c(OC)cc1Cl | 1.2 | 8.8% | -1.3 | 2.0 | .
S=C(Nc1ccc(Cl)cc1Cl)N1CCN(c2ccccn2)CC1 | 3.4 | . | -1.8 | . | .
Cn1nnnc1NCc1ccc(Cl)cc1 | -3.4 | -2.9% | 0.1 | 5.3 | .
O=C(CN(Cc1ccc(F)cc1)C(=O)CNS(=O)(=O)c1ccc(Cl)cc1)NCC1CCCO1 (configuration not stated) | -3.9 | . | 1.0 | . | .

Following part
SMILES | Mtb bLac sens | Mtb H37Rv | RecA intein inh | Arbovirus inh | YopH PTP inh | others
C=CCSc1n[nH]c2nc3c(c(=O)n12)C1(CCCC1)Cc1ccccc1-3 | 5.7 | . | . | 3.9 | -13.2
CCOC(=O)N1CCN(S(=O)(=O)c2c(C(=O)N3CCCCC3)c(C)n(C)c2C)CC1 | -0.2 | . | 0.0 | . | .
CCOc1ccc(N(CC(=O)Nc2ccccc2C)S(=O)(=O)c2c(C)noc2C)cc1 | 4.0 | 0.2% | . | 0.7 | -27.1 | Arbovirus inh repeat=-10.9
O=C(COC(=O)c1ccc(S(=O)(=O)N2CCOCC2)cc1)Nc1nc(-c2ccccc2)cs1 | -6.7 | 3.4% | -0.4 | 0.3 | -7.1
CCOC(=O)c1cnc2ccc(C)cc2c1Sc1ccccc1C(=O)OC | 1.6 | . | 0.2 | -2.5 | -8.4
CC(=O)Nc1ccc(S(=O)(=O)NCCSCc2ccco2)cc1 | 2.7 | -2.9% | 1.0 | 4.4 | -48.2 | Arbovirus inh repeat=5.9
COc1ccc(CC(=O)NNC(=O)CCc2ccccc2)cc1OC | 1.3 | -1.3% | -0.8 | 2.3 | .
O=C(CCN1C(=O)c2ccccc2C1=O)Nc1ccncc1 | 0.2 | -6.2% | -1.0 | 2.0 | -45.3 | Arbovirus inh repeat=0.2
Cc1ccc(N(CC(=O)N/N=C/c2cccc(Br)c2)S(C)(=O)=O)cc1 | 13.1 | 3.6% | 1.9 | -10.9 | -20.5
Cn1c(=O)c2c(nc(CN3CCN(CCO)CC3)n2CCc2ccccc2)n(C)c1=O | -6.3 | -6.2% | -0.2 | 4.0 | .
N/C(=N\OS(=O)(=O)c1cc(Cl)ccc1Cl)c1ccncc1 | 0.2 | -6.4% | -1.8 | 2.7 | -33.6
CCNS(=O)(=O)c1ccc2c3c(cccc13)C(=O)N2 | 4.7 | -3.7% | -200.3 | 5.7 | -2.9
O=C1CC(NCc2cccs2)C(=O)N1c1ccc(Cl)cc1 (configuration not stated) | -7.0 | -3.1% | 1.9 | -0.8 | -7.4
O=C(COc1ccccc1[N+](=O)[O-])N/N=C/c1cccc(OC(=O)c2ccc3c(c2)OCO3)c1 | 7.7 | 36.9% | 0.3 | 4.0 | 22.1
CCOc1ccc(-n2c(C)c(C(C)=O)c(C(C)=O)c2C)cc1 | 2.6 | -8.7% | 0.2 | 6.0 | 8.9
CC(=O)Nc1nc(C)c(-c2csc(Nc3ccc(S(N)(=O)=O)cc3)n2)s1 | 2.9 | -0.2% | 2.3 | . | .
COC(=O)c1ccc(OC)c(CN2CCCN(Cc3cc(C)ccc3C)S2(=O)=O)c1 | -1.4 | . | 4.0 | . | .
O=C(CC1C(=O)NCCN1Cc1ccccc1)NCCC1=CCCCC1 (configuration not stated) | -0.3 | . | 2.7 | . | .
Cc1cc(NC(=O)c2ccc(NC(=O)C3CC3)cc2)no1 | 4.7 | 4.9% | -0.7 | 4.8 | .
O=C(Nc1sc2c(c1C(=O)NCCO)CCCC2)c1ccco1 | 5.3 | . | 0.6 | . | .
CCN(CC(=O)Nc1cc(S(=O)(=O)N2CCOCC2)ccc1C)Cc1ccccc1 | -0.3 | . | 1.0 | . | .
CC(=O)Nc1cccc(NC(=O)C2CC3CCC2C3)c1 (configuration not stated) | 2.3 | 10.4% | 3.5 | -5.7 | -12.9
Cc1ccc(NC(=O)c2ccc(Cn3cc(Br)cn3)o2)cc1 | -0.7 | -2.2% | 6.2 | 1.2 | -8.5

Of the compounds above, 2 have a cyano group.
SMILES | Mtb bLac sens | Mtb H37Rv | RecA intein inh | Arbovirus inh | YopH PTP inh | others
CCNc1nc(N)c(C(=C(C#N)C#N)c2ccccc2)s1 | -1.4 | -2.0% | -7.8 | -7.8 | -37.4
C=CCOC(=O)C1=C(C)NC(SCC(=O)Nc2ccccc2)=C(C#N)C1c1ccco1 (configuration not stated) | 3.8 | -1.7% | 5.0 | -5.6 | -35.7
